Compound activity (PubChem)
Menin MLL FP FL = inhibitors of human menin-MLL interaction, wild-type MLL peptide; Fluorescence polarization, fluorescein-MLL peptide displacement from menin; FP activity change, % at 61.4 µM; 290,000 tested, under 10 active; inconclusive = falling polarisation curve, or a change in total fluorescence; inactive = total fluorescence flat and polarisation flat or rising; no compound was filed as active; the % refers to the polarisation; negative = inhibition;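 further: % of control where 0% means no effect; inhibitors lower the polarisation; unlabelled MLL peptide was the positive control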
ClpP mod = qHTS Assay for Activators of ClpP | 340,000 compounds, 1.9% hits | Potency, µM (titrated, usually from 57.5 µM), for inactives: at the highest dose activity change, negative = active | ATP-dependent Clp protease proteolytic subunit (Bacillus subtilis (strain 168)), P80244 | AID 651965, 2013 | purified B. subtilis ClpP, FRET peptide cleavage, 20 min; active = well fitted falling curve with a large enough effect; inconclusive = small, poorly fitted or top-dose-only effect; inactive = no such curve, though single readings can be large or run the other way; further: potency means the concentration at half of the fitted maximal effect; the source files actives as falling curves though it sought activators and does not explain the sign; nearly all actives have a fitted effect of over 65% in size; many hits overshoot -100%
Target sequence (P80244 whole entry, looked up): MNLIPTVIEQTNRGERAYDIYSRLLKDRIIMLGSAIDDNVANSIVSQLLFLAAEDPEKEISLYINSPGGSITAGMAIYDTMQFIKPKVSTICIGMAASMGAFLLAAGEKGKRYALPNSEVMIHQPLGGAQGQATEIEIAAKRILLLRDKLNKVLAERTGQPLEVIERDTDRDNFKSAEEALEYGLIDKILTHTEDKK
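ClpP 10 microg/mL final, pH 8 Tris/KCl buffer with BSA, glycerol, Tween-20; compound pinned in; FRET-FV substrate; RT 20 min; Ex320/Em430; ΔFRET vs ADEP 5.8 microM, DMSO, no enzyme.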
CtBP-E1A blk = blocks the CtBP interaction with E1A | AlphaScreen GST-E1A/His-CtBP binding, 1536-well; stronger effect = lower value; control for the full effect not named in the record | activity change, % (test concentration not listed) | 340,000 compounds, 0.49% hits | AID 651724; in the data active means activity change below about -65%; inconclusive means about -30% to -65%; inactive means above about -30%; further: on the % scale 0 is the no-effect control and ±100 the full control effect
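AlphaScreen with 125 nM GST-E1A and 125 nM His-CtBP (5X stocks) in Tris pH 8.0, 300 mM NaCl, BSA, Tween 20, TCEP. Compounds preincubated 2 h at 37 deg C, then glutathione donor/nickel acceptor beads added for 1 h at 37 deg C in dark.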
gsp antag = antagonizes gsp, the McCune-Albright syndrome mutation. 340,000 compounds, 0.4% hits. gsp-mutant cells, cAMP HTRF, 30 min; control for the full effect not named in the record. Potency, µM (doses to about 76.9 µM), inactives show at the top dose activity change, negative = inhibition, hits mostly inhibitors; active = falling curve of any shape with a large fitted effect; inconclusive = falling curve, mostly with a smaller effect; inactive = flat or rising curve; cell line not stated here;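 further: intracellular cAMP measured with PDE inhibitor Ro 20-1724 present during compound exposure; potency means the concentration at half of the fitted maximal effect; on the % scale 0 is the no-effect control and ±100 the full control effect; nearly all actives have a fitted effect of over 65% in size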
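Cells, 2000/well, grown 16–24 h in DMEM 10% FBS with 0.5 mg/ml G418, then compounds plus […] (300 uM addition stock), 30 min at 37C. cAMP read by HTRF (cAMP-d2 and anti-cAMP antibody-K in lysis buffer) after 30 min RT.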
TRPV1 PAM = enhances activation of the human vanilloid receptor TRPV1; TRPV1-expressing cells, Fluo-8 calcium influx, capsaicin EC20 potentiation; host cell line not named in the record; control for the full effect not named in the record; potentiation, % at 8.33 µM; 320,000 compounds, 0.02% hits; AID 540277; active means potentiation above 80%; inconclusive means 30% to 80%; inactive means below 30%; further: 0% is about no effect
Target sequence (Q8NER1 whole entry, looked up): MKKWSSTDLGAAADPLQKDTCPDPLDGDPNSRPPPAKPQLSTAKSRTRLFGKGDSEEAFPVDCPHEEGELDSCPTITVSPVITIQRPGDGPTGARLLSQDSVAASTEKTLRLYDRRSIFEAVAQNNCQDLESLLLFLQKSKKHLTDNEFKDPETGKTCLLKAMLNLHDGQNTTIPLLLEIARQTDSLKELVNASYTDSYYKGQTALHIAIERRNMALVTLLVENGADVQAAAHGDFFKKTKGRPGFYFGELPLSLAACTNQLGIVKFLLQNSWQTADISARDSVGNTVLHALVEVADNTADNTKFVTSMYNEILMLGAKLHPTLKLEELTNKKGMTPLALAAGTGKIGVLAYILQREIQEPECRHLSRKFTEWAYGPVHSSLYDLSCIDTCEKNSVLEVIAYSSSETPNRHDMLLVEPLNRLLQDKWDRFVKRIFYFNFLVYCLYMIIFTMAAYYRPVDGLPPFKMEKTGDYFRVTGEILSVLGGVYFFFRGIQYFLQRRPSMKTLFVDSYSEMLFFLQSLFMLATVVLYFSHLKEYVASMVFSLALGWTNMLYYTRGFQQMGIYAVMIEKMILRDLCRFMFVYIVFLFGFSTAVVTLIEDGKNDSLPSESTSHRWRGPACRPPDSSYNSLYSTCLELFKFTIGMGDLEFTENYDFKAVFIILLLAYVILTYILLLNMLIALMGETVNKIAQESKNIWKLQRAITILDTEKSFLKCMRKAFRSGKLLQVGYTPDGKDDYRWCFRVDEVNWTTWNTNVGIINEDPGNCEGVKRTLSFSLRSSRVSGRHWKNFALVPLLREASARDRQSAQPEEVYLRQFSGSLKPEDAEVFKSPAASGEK
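TRPV1-expressing cells were cultured overnight at 35.5C and loaded with Fluo-8 calcium dye for 40 to 90 min at room temperature. After a 10 s baseline, compound was added and calcium influx was read kinetically for 3 min (ex 480/em 520 nm).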
gsp agonist = gsp mutant agonism | gsp mutant cells, cAMP HTRF, 30 min; control for the full effect not named in the record | Potency, µM (top dose mostly 76.9 µM), for the others: at the highest dose activation (cAMP increase), most hits filed as activators | 340,000 compounds, 0.13% hits | AID 624287; active = well fitted activation curve with a large enough effect; inconclusive = small, poorly fitted or top-dose-only effect, or another doubt; inactive = no such curve, though single readings can be large or run the other way; cell line not stated here;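 further: phosphodiesterase inhibitor Ro 20-1724 added with compounds to block cAMP breakdown; potency means the concentration at half of the fitted maximal effect; nearly all actives have a fitted effect of over 60% in size; about a fifth of the inactives were tested at one dose only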
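Cells stably selected in G418 were plated at 2000/well, grown 16-24 hr, then given compounds in DMSO with the PDE inhibitor […] (300 uM solution added) for 30 min at 37C; cAMP was read by HTRF.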
Sfp inh = blocks B. subtilis Sfp PPTase activity; Potency, µM, for the others: max response, negative = inhibition, hits mostly inhibitors; 310,000 compounds, 3.5% hits; Biochemical Sfp PPTase activity, qHTS; Q9F4F7; active means well fitted inhibition curve with a large enough effect; inconclusive means small, poorly fitted or top-dose-only effect, or another doubt; inactive means no such curve, though single readings can be large or run the other way;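 further: the enzyme is Sfp with the accession as filed and its product quenches rhodamine fluorescence; potency means the concentration at half of the fitted maximal effect; 0% = enzyme reaction without inhibitor and -100% = no enzyme wells; top concentration of the series not given in the record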
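Fluorescence-quenching assay with 15 nM Sfp, 5 uM rhodamine-CoA and 12.5 uM BHQ-2-labelled ybbR peptide in pH 7.6 Hepes/MgCl2 buffer. Enzyme was pre-incubated with compound for 15 min at room temperature. Rate was taken from the 30-min fluorescence change (525/598 nm).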
* marks the source's active call; other numbers are inactive results; ? = inconclusive; / = not tested or not shown; & = joins results of further samples; [ ] = remark or other dose. No enrichment for hits; 5.3% or so of the library scored in one or more.

SMILES	Menin MLL FP FL	ClpP mod	CtBP-E1A blk	gsp antag	TRPV1 PAM	gsp agonist	Sfp inh
C=CCn1c(SCC(N)=O)nc(C)cc1=O	5.9	1.5%	6	11%	2	5%	14%
Cc1cc(=O)[nH]c(NCc2ccccc2)n1	-1.4	-1.6%	-12	-1%	-4	?	-7%
COc1ccccc1N1C(=O)C(=O)N(C)C1=O	/	-1.0%	-5	2%	/	4%[15.4 µM]	/
O=C(CSc1nc2c([nH]c3ccccc32)c(=O)n1-c1ccccc1)NCC1CCCO1 (stereo not given)	-0.9	-22%	-4	-5%	12	21%	6%
Cc1oc(-c2ccccc2F)nc1CS(=O)(=O)CC(=O)NCCN(C)C1CCCCC1	3.0	-12%	-16	1%	-11	14%	0%
CN(c1ccc(C(=O)Nc2ccc(CC#N)cc2)cc1)S(C)(=O)=O	0.4	-2.6%	3	6%	-21	19%	2%
CC1(c2ccc3noc(-c4ccc(F)cc4)c3c2)OCCO1	?	0.8%	2	-10%	-10	5%	-3%
CCCC(O)(CCC)C(=O)NNc1ccc(C)cc1	4.6	/	-6	5%	1	?	?
Cc1nc(Oc2cccc(Cl)c2)c2oc3ccccc3c2n1	4.4	-4.0%	18	-4%	-17	3%	-30%
COc1ccc(C2/C=C\CN(S(=O)(=O)c3ccc4ccccc4c3)CC(=O)N2Cc2ccc(F)cc2)cc1 (stereo not given)	4.5&5.8	-3.0%	4	-9%	1	/	15%&11%
CC(C(=O)NCc1ccccc1Cl)n1cc([N+](=O)[O-])cn1 (stereo not given)	0.8	-0.4%	7	6%	13	-19%	12%
CSc1nnc(-c2ccncc2)n1/N=C/c1cn(-c2ccccc2)nc1-c1ccc(Cl)cc1	4.0	/	2	2%	-2	-7%[15.4 µM]	?
CCOC(=O)N1CCC(n2c(SCC(=O)NCc3ccccc3)nc3ccccc3c2=O)CC1	-0.9	-0.9%	10	?	-3	-3%	6%
CC(=O)c1cccc(NC(=O)CCNS(=O)(=O)c2cccc3nsnc23)c1	-6.3	0.7%	0	-4%	21	0%	26%
Cc1ccc2oc(=O)n(CCOc3ccccc3)c2c1	2.6	/	-2	8%	-2	-16%[15.4 µM]	4%
O=C(COC(=O)C1CCCCC1)NCCc1ccccc1	1.7	/	0	14%	-13	?	5%
O=C(COC(=O)c1cc[n+]([O-])cc1)NC(=O)c1ccc(OC(F)F)cc1	/	0.3%	/	0%	/	11%	/
CCCCn1c(N)c(N(CCC(C)C)C(=O)C2CCCC2)c(=O)[nH]c1=O	/	-0.2%	/	9%	6	-3%	/
COc1ccc(Cl)cc1S(=O)(=O)N1CCN=C1C	1.3	0.4%	13	-2%	3	-15%	12%
COc1ccc(-c2nn(C)c3sc(C(=O)N4CCOCC4)cc23)cc1OC	-1.9	-8.3%	-10	4%	6	3%	-8%
Cc1noc(C)c1COc1ccccc1C(=O)N(C)Cc1ccc(F)cc1	/	-0.3%	5	2%	12	7%	/
C/C(=N\NC(=O)c1cc(C)oc1C)c1ccc(N2CCOCC2)cc1	1.0	/	-2	5%	8	-4%[15.4 µM]	9%
COc1ccc(NS(=O)(=O)c2ccc(F)cc2F)cn1	/	/	2	5%	-2	-27%[15.4 µM]	5%
CN(CCOc1ccc(Cl)cc1)C(=O)c1cccc(S(=O)(=O)N2CCN(c3ccc(F)cc3)CC2)c1	/	/	-5	-16%	/	15%[15.4 µM]	/
CN(C)S(=O)(=O)c1ccc(NC(=O)CN2C(=O)NC(Cc3ccccc3)C2=O)cc1 (stereo not given)	/	-1.7%	1	1%	-1	-3%	/
Going on with the list.
SMILES	Menin MLL FP FL	ClpP mod	CtBP-E1A blk	gsp antag	TRPV1 PAM	gsp agonist	Sfp inh
NC(=O)c1ncn([C@@H]2O[C@H](CNCc3cnc(N4CCOCC4)nc3)[C@@H](O)[C@H]2O)n1	/	-5.5%	3	5%	/	/	/
Cc1cccc(/C(N)=N/OC(=O)c2ccoc2C)c1	4.9	/	6	2%	3	12%	-1%
COc1ccc(C)cc1S(=O)(=O)N1CCCC(C(=O)NCc2ccccn2)C1 (stereo not given)	/	0.9%	3	3%	29	3%[15.4 µM]	12%
Cc1cc(/C=C2/NC(=O)N(Cc3ccccc3F)C2=O)c(C)n1C(C)C	6.8	/	4	11µM*	-8	-5%[15.4 µM]	-12%
CCc1cccc(NC(=O)CSc2nc(C)cs2)c1	/	-0.6%	6	/	/	1%	/
CCC(CC)NC(=O)COC(=O)CCC(=O)c1cccs1	0.9	-0.8%	/	-1%	-2	-8%	10%
CCCOc1ccc(CN(C(=O)c2cccc(OC)c2)C2CCS(=O)(=O)C2)cc1 (stereo not given)	/	/	-1	0%	9	17%	-1%
CC1CC(C)CN(S(=O)(=O)CCNC(=O)c2ccc3c(c2)OCO3)C1 (stereo not given)	/	/	3	1%	-11	-3%[15.4 µM]	/
O=C(NC1CCCC1)C(=O)N(c1ccccc1F)C(C(=O)NCC1CCCO1)c1cccs1 (stereo not given)	0.0	0.5%	/	5%	-15	-36%[inhibitor]	-2%
COc1cc2c(cc1OC)-c1cc(Nc3ccc4c(c3)OCCO4)nc(=O)n1CC2	6.4	?	?	7%	-15	?	5%
Cc1cc(C)c(S(=O)(=O)Nc2ccc(N(C)C)cc2)c(C)c1-n1cnnn1	-4.9	/	-7	-14%	8	18%	-3%
O=C1/C(=C/c2cccc([N+](=O)[O-])c2)Oc2cc(O)ccc21	?	1.2%	2	?	-2	17%	-7%
Cc1ccc(Cl)cc1NC(=O)COC(=O)C1CCCCC1	6.2	-0.2%	-1	5%	-13	-38%[inhibitor]	8%
CC1(C)CC(=O)C(C(C2=C(O)CC(C)(C)CC2=O)c2ccc([N+](=O)[O-])cc2)C(=O)C1 (stereo not given)	1.2	0.9%	9	3%	-14	1%[15.4 µM]	18µM*
CCOC(=O)[C@H]1[C@H]2COc3ccc(C)cc3[C@@H]2N2C(=O)CN(Cc3ccc(Cl)cc3)C(=O)[C@@]12C	/	-1.1%	-3	-8%	-3	/	/
COc1ccc(C(=O)NC(=S)Nc2cc3oc4ccccc4c3cc2OC)cc1	2.3	/	5	2%	-11	-5%	-17%
COc1ccc(C)cc1NC(=O)c1ccc(S(=O)(=O)N2CCOCC2)cc1	0.1	-0.8%	5	10%	-12	7%	-2%
CC(=O)NCCC(=O)Nc1nc(-c2c[nH]c3ccccc23)cs1	7.9	/	?	1%	6	21%	6%
CC[C@H](C)[C@H](NS(=O)(=O)c1ccc(C)cc1)C(=O)N1CCC(C(=O)N[C@H](C(=O)O)C(C)C)CC1	-0.5	-1.8%	2	13%	-6	9%	13%
CN(C)S(=O)(=O)Oc1ccc(C(=O)Nc2cccc(Cl)c2)cc1	2.0	/	1	-12%	-4	21%	19%
COc1ccccc1-n1cc2c([N+](=O)[O-])cc([N+](=O)[O-])cc2n1	-1.5	1.0%	0	-15%	-2	-70%[inhibitor]	8%
CCCOc1cccc(NC(=O)c2c(-c3ccccc3)noc2C)c1	-2.0	1.7%	9	?	-4	-5%	?
COc1cc2[nH]c(-c3ccc(C)cc3)cc(=O)c2cc1OC	-3.9[94.6 µM]	3.7%	/	1%	2	-4%	13%&31%
N#Cc1ccc(NC(=O)COC(=O)CSc2nnc(-c3ccc(Cl)cc3)o2)cc1	0.0	0.1%	3	5%	-4	?	-6%
O=C(Nc1ncc(Cc2ccccc2)s1)C1CCCO1 (stereo not given)	-2.2	0.0%	0	8%	-13	6%	-4%
Later entries:
SMILES	Menin MLL FP FL	ClpP mod	CtBP-E1A blk	gsp antag	TRPV1 PAM	gsp agonist	Sfp inh
COc1cccc(NC(=O)C2CCC(CNC(=O)[C@@H]3Cc4ccccc4CN3)CC2)c1 (stereo not given in full)	/	-1.5%	-3	1%	6	5%	-4%
COc1ccc(-n2cc(-c3ccccc3)c3c(NCCCN4CCOCC4)ncnc32)cc1	-0.6	/	-7	5%	-2	-5%[15.4 µM]	-28%
Cc1ccc(NC(=O)CC(C)S(=O)(=O)c2ccc3c(c2)NC(=O)CO3)cc1C (stereo not given)	-0.5	-1.2%&1.7%	0	-15%	1	-27%	15%
COc1ccccc1-n1c(SCC(=O)NC2CCS(=O)(=O)C2)nc2cc([N+](=O)[O-])ccc21 (stereo not given)	1.5	-3.1%	6	-5%	6	29%	11%
COc1cc(OC)c2c(-c3cccc(-c4ccc(O)cc4)c3)cc(=O)oc2c1	-0.2	-8.2%	-17	0%	/	/	6%
COc1ccc(/C(N)=N/OC(=O)c2ccc(OC)c([N+](=O)[O-])c2)cc1OC	-0.1	/	0	-4%	2	18%[15.4 µM]	9%
O=C(O)c1cccc(OCc2ccccc2Cl)c1	6.4	0.8%	4	?	0	29%	4%
CCOC(CNC(=O)CCc1c(C)nc2ncnn2c1C)OCC	4.3	-4.3%	4	5%	2	?	13%
Cc1ccc(CNC(=O)CSc2ccc(-c3cccs3)nn2)cc1	-1.1	1.9%	-5	-9%	5	9%	7%
Cc1ccc(N(C(=O)c2csnn2)C(C(=O)NC(C)(C)C)c2cccnc2)cc1C (stereo not given)	-1.4	/	6	7%	-12	-37%[inhibitor]	24%
Cc1ccccc1-n1c(SCC(=O)c2cc(C)n(C)c2C)nnc1-c1ccncc1	4.1	4.1%	-1	-15%	25	0%	2%
O=C(CN1C(=O)NC2NC(=O)NC21)N/N=C/c1ccccc1O (stereo not given)	0.3	/	-90*	8%	7	-2%[15.4 µM]	20%
COC(=O)COc1ccc(C)cc1-n1nc2ccccc2n1	-0.6	/	-9	-4%	-27	7%	-1%
c1ccc(COc2ccc(OCCCn3cncn3)cc2)cc1	1.1	0.9%	-3	-1%	-20	1%	7%
Cc1ccc(C(=O)/C=C/Nc2ccccn2)cc1	/	-8.3%	-12	6%	/	-39%[inhibitor]	/
Cc1ccc(-c2csc(NNC(=O)c3ccccc3)n2)cc1	2.7	-3.7%	0	12%	7	1%	-14%
Cc1cccc2cc3c(nc12)-c1ccccc1C3=O	0.0	-0.8%	17	-3%	11	-9%	-12%
C#CCN1C=CC(=O)[C@@H](OC(=O)Nc2ccc(OC)cc2)[C@H]1c1ccccc1Br	/	0.2%	0	-8%	/	/	/
